Source: PubChem
eIF4H inh = inhibitors of RNA binding by human eIF4H; Q15056; eIF4H fluorescence polarization binding assay; inhibition, % at 35 µM; actives 0.94% (n = 290,000);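 active = 50% or more with normal probe brightness, or confirmed in later tests; about a fifth of its hits are not listed in these tables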;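 note: calls also rest on retests at 20 µM and on dose response follow-up; 0% = protein and probe with vehicle and 100% = probe without protein; strong numbers were not always called active; many hits fall short of the cut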
Rce1 inhib = inhibitors of yeast Ras-converting enzyme. Q03530. yeast membranes, quenched prenylated peptide cleavage fluorescence. calls only. actives 0.27% (n = 290,000);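 active = fall in fluorescence gain of 50% or more versus controls, with final raw signal at or below 3038400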;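 note: plate controls were neutral control wells for no effect and wells lacking membranes for full effect; tested at 10 µM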
Yeast UUG start = alters start codon recognition fidelity in yeast. actives 0.13% (n = 350,000). AID 602363. activity score, % at 18.7 µM. S. cerevisiae UUG-firefly luciferase reporter, luminescence/redox ratio;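 active = replicate mean at a twofold rise or more, about +100% in these data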;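 note: firefly luciferase made from a UUG start codon reports start codon fidelity; reporter light over untreated wells divided by growth signal over untreated wells; some hits fall short of that in this replicate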
CSC inhib = blocks cancer stem cells | cancer stem cell-like cells viability, luminescence | inhibition, % at 7.5 µM | actives 1.1% (n = 300,000);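 active = mean at 75% or more and at least half the replicates too; tested in HMLE shEcad cells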;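 note: 0% = median of negative and 100% = median of positive control wells; the first replicate is given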
PABP FP inh = blocks human PABP binding to poly(A) RNA. P11940. fluorescence polarization. inhibition, % at 35 µM. actives 1% (n = 290,000). AID 2014;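 active = 50% or more with normal probe brightness, or confirmed in later tests; about a fifth of its hits are not listed in these tables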;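 note: calls also rest on retests at 20 µM and on dose response follow-up; controls were probe without protein and protein plus probe with vehicle; some compounds called inactive have numbers as strong as hits; many hits fall short of the cut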
Target sequence (P11940 whole entry, looked up): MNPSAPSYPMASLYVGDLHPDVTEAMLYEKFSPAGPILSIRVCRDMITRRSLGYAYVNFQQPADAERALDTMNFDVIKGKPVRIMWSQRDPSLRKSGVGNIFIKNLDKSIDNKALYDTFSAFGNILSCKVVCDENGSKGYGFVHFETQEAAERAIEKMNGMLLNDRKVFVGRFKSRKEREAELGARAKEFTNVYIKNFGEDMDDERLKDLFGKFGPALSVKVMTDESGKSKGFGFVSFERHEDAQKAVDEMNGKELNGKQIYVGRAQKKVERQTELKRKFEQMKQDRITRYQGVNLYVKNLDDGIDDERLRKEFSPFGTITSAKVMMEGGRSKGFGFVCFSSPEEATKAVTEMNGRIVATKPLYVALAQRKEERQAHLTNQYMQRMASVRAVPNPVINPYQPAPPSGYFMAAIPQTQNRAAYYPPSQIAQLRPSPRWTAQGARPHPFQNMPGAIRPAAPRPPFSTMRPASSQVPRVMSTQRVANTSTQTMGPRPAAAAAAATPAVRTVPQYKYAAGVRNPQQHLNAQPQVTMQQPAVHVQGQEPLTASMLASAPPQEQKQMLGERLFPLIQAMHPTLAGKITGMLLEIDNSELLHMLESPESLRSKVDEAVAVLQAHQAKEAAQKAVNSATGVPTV
MT1-MMP act inh = MT1-MMP (human) activation inhibition. P50281. HT1080 RFP-PRO-GFP cells, GFP/RFP ratio fluorescence, overnight; percent of plate control window, DMSO zero. GFP/RFP ratio change, % at 20 µM. actives 0.061% (n = 360,000). AID 651647;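 active = GFP/RFP ratio change of at least 30% with cell ATP level not reduced by more than half and red fluorescence within 50% of control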; note: strong numbers were not always called active
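Material: RFP-PRO-GFP reporter HT1080 cells. Dosing: single-point 20 µM compound, 1% DMSO. Controls: DMSO and RFP-L50D-GFP cell wells. Timing: cells overnight before dosing, compound overnight, 37 °C, 5% CO2. Measure: GFP/RFP fluorescence ratio.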
HIV Env fusion = inhibitors of HIV Env-mediated cell fusion | HeLa-JRFL Env/CEM21 cell fusion, luciferase | inhibition, % at 12.3 µM | actives 1.1% (n = 360,000) | AID 651610;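 active = mean replicate inhibition score of at least 50 and every replicate individually at or above 50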;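 note: 0% = plate neutral controls and 100% = maraviroc near 300 nM; one replicate is shown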
eIF4H inh retest = recorded beside eIF4H inh, whose call it bears; inhibition, %; compound at 20 µM; confirmation average;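 mean of two retest wells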
PABP FP inh retest = also measured in PABP FP inh; calls as there; inhibition, %; compound at 20 µM; confirmation repeats;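 mean of two retest wells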
MT1-MMP act inh RFP = recorded beside MT1-MMP act inh, whose call it bears; RFP signal change, %; measured here: RFP expression control read;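 0 = vehicle wells; hits needed this value within 50% of zero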
* hit, by the source's call; i = inactive; x = not tested or not shown; & = joins results of further samples; [ ] = remark or other dose.

SMILES	eIF4H inh	Rce1 inhib	Yeast UUG start	CSC inhib	PABP FP inh	MT1-MMP act inh	MT1-MMP act inh RFP	HIV Env fusion	others
O=C(NCc1ccccc1)c1onc(CSc2ccccc2)c1C(=O)NCc1ccccc1	x	i	-6	17	x	1	-1	3
OCCc1c[nH]c2ccc(OCc3ccccc3)cc12	0	i	-4	-9	-1	2	2	-109
CNS(=O)(=O)c1cc(NC(C)=O)c(C)cc1C	-2	i	x	-3	-10	12	1	16
C[C@H](CO)N1C[C@H](C)[C@@H](CN(C)S(=O)(=O)c2ccc(F)cc2)Oc2ccc(NC(=O)C3CC3)cc2C1=O	x	x	2&1	-11	x	-1	2	26[16.7 µM]
CC(C)(C)n1nnnc1C(c1ccc(Cl)cc1)N(Cc1cccnc1)Cc1ccco1 (stereo not given)	1	i	x	-1	-15	-11	-8	x
CC(C)C(NC(=O)c1ccc2c(c1)OCCO2)c1nc2ccccc2[nH]1 (stereo not given)	-4	i	-23	-5	8	-28	-20	3
O=C(CCl)N(c1ccccc1)C1CCCCC1	1	i	x	-16	27	-28	-26	11
COC(=O)c1sccc1-n1cccc1C(=O)C(=O)N1CC(C)OC(C)C1 (stereo not given)	-9	i	-9	-2	71	0	4	x	eIF4H inh retest=27;PABP FP inh retest=9
CCN(CC)CCN1C(=O)C(=O)/C(=C(/O)c2ccc(F)cc2)C1c1cccnc1 (stereo not given)	0	i	x	10	5	2	5	0
COc1cc(/C=C/C(=O)OCC(=O)NC(=O)NCc2ccco2)ccc1OC(F)F	x	x	-2	11	x	0	2	9
COc1cccc(C(=O)NCC2CCCN(C(=O)c3ccc(C=O)cc3)C2)c1OC (stereo not given)	0	i	3	-1	4	-2	3	-16
Cc1cc(C)n(CC(O)Cn2cnc3c2c(=O)n(C)c(=O)n3C)n1 (stereo not given)	2	i	-13	-17	2	0	1	-45
COCC(=O)Nc1c(C(=O)Nc2ccc3c(c2)OCCO3)oc2ccccc12	-5	i	-10	3	-6	3	1	-57
Brc1ccc(-c2nc3ccc(Br)cn3c2Cc2ccccc2)cc1	x	x	-12	x	x	-13	-11	-35
CC(C)c1c(C(=O)N/N=C/c2cccs2)nnn1-c1nonc1N	4	i	-4	-8	6	0	-5	-8
CCOC(=O)COc1ccc(CCNC(C)=O)cc1	-2	i	-24	-15	-1	3	3	-33
Cc1ccc(C)c(-n2c(Cc3cccs3)n[nH]c2=S)c1	15	i	-33	2	0	1	1	-1
OC(CN1CCOCC1)Cn1c2c(c3ccccc31)CCCC2 (stereo not given)	16	i	-29	-9	6	-2	-1	-1
Cc1ccc(CCNC(=O)CCNS(=O)(=O)c2ccc3c(c2)oc(=O)n3C)cc1	-18	i	-19	-4	38	1	0	-30
COc1ccc(N(CC(=O)NC2CCCCC2)C(=O)CCCC(=O)Nc2ccccn2)cc1	-1	i	-2	-3	-10	3	1	24
c1ccc(Cn2c(-c3cncs3)nc3ccccc32)cc1	8	i	-36	-12	9	6	1	-1
CCN(CC)C(=O)N1CCC(NC(=O)Cc2ccccc2)CC1	-6	i	-1	-20	2	-2	0	9
COc1ccc(-c2cc(=O)oc(-c3cccc(C)c3)n2)cc1	-2	i	x	-2	-2	2	2	-7
Oc1ccc(NCc2cccc(OCc3ccccc3)c2)cc1	69	i	-13	1	36*	25	20	10	eIF4H inh retest=-11;PABP FP inh retest=107*
CCOCCOC(=O)c1cccc2c1-c1ccccc1C2=O	3	i	-18	3	-1	0	1	-5

20 compounds out of the list, arranged by formula weight, rising:
SMILES	eIF4H inh	Rce1 inhib	Yeast UUG start	CSC inhib	PABP FP inh	MT1-MMP act inh	MT1-MMP act inh RFP	HIV Env fusion	others
O=C(CCl)N(c1ccccc1)C1CCCCC1	1	i	x	-16	27	-28	-26	11
CNS(=O)(=O)c1cc(NC(C)=O)c(C)cc1C	-2	i	x	-3	-10	12	1	16
OCCc1c[nH]c2ccc(OCc3ccccc3)cc12	0	i	-4	-9	-1	2	2	-109
COc1ccc(-c2cc(=O)oc(-c3cccc(C)c3)n2)cc1	-2	i	x	-2	-2	2	2	-7
Cc1ccc(C)c(-n2c(Cc3cccs3)n[nH]c2=S)c1	15	i	-33	2	0	1	1	-1
Oc1ccc(NCc2cccc(OCc3ccccc3)c2)cc1	69	i	-13	1	36*	25	20	10	eIF4H inh retest=-11;PABP FP inh retest=107*
OC(CN1CCOCC1)Cn1c2c(c3ccccc31)CCCC2 (stereo not given)	16	i	-29	-9	6	-2	-1	-1
CCN(CC)C(=O)N1CCC(NC(=O)Cc2ccccc2)CC1	-6	i	-1	-20	2	-2	0	9
Cc1cc(C)n(CC(O)Cn2cnc3c2c(=O)n(C)c(=O)n3C)n1 (stereo not given)	2	i	-13	-17	2	0	1	-45
COC(=O)c1sccc1-n1cccc1C(=O)C(=O)N1CC(C)OC(C)C1 (stereo not given)	-9	i	-9	-2	71	0	4	x	eIF4H inh retest=27;PABP FP inh retest=9
COCC(=O)Nc1c(C(=O)Nc2ccc3c(c2)OCCO3)oc2ccccc12	-5	i	-10	3	-6	3	1	-57
CCN(CC)CCN1C(=O)C(=O)/C(=C(/O)c2ccc(F)cc2)C1c1cccnc1 (stereo not given)	0	i	x	10	5	2	5	0
COc1cccc(C(=O)NCC2CCCN(C(=O)c3ccc(C=O)cc3)C2)c1OC (stereo not given)	0	i	3	-1	4	-2	3	-16
Cc1ccc(CCNC(=O)CCNS(=O)(=O)c2ccc3c(c2)oc(=O)n3C)cc1	-18	i	-19	-4	38	1	0	-30
COc1cc(/C=C/C(=O)OCC(=O)NC(=O)NCc2ccco2)ccc1OC(F)F	x	x	-2	11	x	0	2	9
CC(C)(C)n1nnnc1C(c1ccc(Cl)cc1)N(Cc1cccnc1)Cc1ccco1 (stereo not given)	1	i	x	-1	-15	-11	-8	x
Brc1ccc(-c2nc3ccc(Br)cn3c2Cc2ccccc2)cc1	x	x	-12	x	x	-13	-11	-35
COc1ccc(N(CC(=O)NC2CCCCC2)C(=O)CCCC(=O)Nc2ccccn2)cc1	-1	i	-2	-3	-10	3	1	24
O=C(NCc1ccccc1)c1onc(CSc2ccccc2)c1C(=O)NCc1ccccc1	x	i	-6	17	x	1	-1	3
C[C@H](CO)N1C[C@H](C)[C@@H](CN(C)S(=O)(=O)c2ccc(F)cc2)Oc2ccc(NC(=O)C3CC3)cc2C1=O	x	x	2&1	-11	x	-1	2	26[16.7 µM]

Going on with the list.
SMILES	eIF4H inh	Rce1 inhib	Yeast UUG start	CSC inhib	PABP FP inh	MT1-MMP act inh	MT1-MMP act inh RFP	HIV Env fusion	others
COc1ccc2cc(CCNS(=O)(=O)c3c(C)cc(C)cc3C)c(=O)[nH]c2c1	9	i	-4	-2	2	1	4	1
O=C1NC2(CCCCC2)C(=O)N1/N=C/c1ccccc1Br	-4	x	42	-3	6	2	4	-10
C=CCNC(=O)c1onc(CSc2ccccc2)c1C(=O)O	2	i	-8	-6	5	-4	1	-24
O=C(Nc1ccccc1C(=O)N1CCOCC1)C1CC(=O)N(c2ccc(F)cc2)C1 (stereo not given)	-2	i	-8	-20	-4	-4	0	-27
CCOc1ccc(CCNC(=O)C2CC(=O)N(CCc3ccccc3)C2)cc1OCC (stereo not given)	0	i	2	-2	-12	7	-2	7
COc1ccccc1C(=O)NNC(=O)C(=O)Nc1cccc(Cl)c1C	6	i	-14	11	6	1	2	3
COc1ccc(-c2nc3ccc(Cl)cn3c2CC(C)(C)C)cc1OC	x	x	-13	x	x	0	-2	27
COC(=O)c1cc(NS(=O)(=O)c2ccc(C)c3ccccc23)ccc1N1CCOCC1	-3	i	x	-2	8	5	-2	18
Cc1ccc(-c2ccc(=O)n(CC(=O)Nc3ccc4c(c3)OCCO4)n2)cc1	-5	i	x	-3	-5	2	6	11
Fc1ccc(-n2cnnn2)c(F)c1	8	i	-19	8	10	-4	2	x
CS(=O)(=O)N(Cc1ccc(C(=O)NC2CCCCC2O)cc1)c1ccccc1 (stereo not given)	7	i	x	-5	-1	1	2	x
Cc1ccc(S(=O)(=O)N2CCN(CCC#N)CC2)cc1	2	i	x	x	1	1	0	-6
COc1cccc(CC2(CO)CCCN(Cc3ccccc3-c3ccco3)C2)c1 (stereo not given)	16	i	x	23	-11	-7	2	4
COc1ccc(OC)c(NC(=O)C(=O)NNC(=O)C23CC4CC(CC(C4)C2)C3)c1	57	i	-9	-12	3	6	3	11	eIF4H inh retest=10;PABP FP inh retest=9
CCN(c1ccc(OC)cc1)S(=O)(=O)c1nnc(NC(=O)COc2ccc(C)cc2)s1	34	i	-3	15	4	0	1	x
CSc1nc2nc3c(cc2c(=O)n1-c1ccccc1)COC(C)(C)C3	-2	i	x	x	-4	4	-1	6
CCOc1ccc(-n2nnnc2SCC(=O)N2CCOCC2)cc1	2	i	-16	-19	-1	-1	-5	x
Cc1ccc(C(=O)/C=C/c2ccc3c(c2)OCCO3)c(O)c1	0	i	6	34	-6	-3	1	-9
Cc1cc(C(=O)O)ccc1-n1c(C)cc(/C=C2\SC(=O)NC2=O)c1C	24	i	-12	-12	12	6	-3	8
Cc1ccccc1NC(=O)c1cccc(S(=O)(=O)N2CCCCC2)c1	2	i	16	-1	-2	2	-3	-7
CCCN(CCC)C(=O)CC(c1ccccc1)c1ccc(C)cc1O (stereo not given)	-6	i	-3	4	-5	-13	-10	x
NC(=O)CC(NC(=O)c1ccccc1)c1ccc(NC2CCC2)c([N+](=O)[O-])c1 (stereo not given)	2	i	-19	14	10	14	-2	2
Cc1[nH]nc2ncc(C(=O)c3cc(F)ccc3O)cc12	-2	i	2	-12	-10	-8	-7	x
Cc1ccc(C(O)Cn2nc(C)cc2C)cc1 (stereo not given)	x	i	-11	-13	x	1	-1	11
CCOc1ccccc1OCC(=O)OCC(=O)Nc1ncc(Cl)cc1Cl	5	i	3	x	1	-3	0	x

Reprinted at random: 2 compounds from above.
SMILES	eIF4H inh	Rce1 inhib	Yeast UUG start	CSC inhib	PABP FP inh	MT1-MMP act inh	MT1-MMP act inh RFP	HIV Env fusion	others
NC(=O)CC(NC(=O)c1ccccc1)c1ccc(NC2CCC2)c([N+](=O)[O-])c1 (stereo not given)	2	i	-19	14	10	14	-2	2
Cc1ccc(C(O)Cn2nc(C)cc2C)cc1 (stereo not given)	x	i	-11	-13	x	1	-1	11

Further records
SMILES	eIF4H inh	Rce1 inhib	Yeast UUG start	CSC inhib	PABP FP inh	MT1-MMP act inh	MT1-MMP act inh RFP	HIV Env fusion	others
O=C(CN1CCC(C(=O)O)CC1)Nc1ccccc1Oc1ccccc1	-6	i	1	x	2	-2	0	12
CCOC(=O)c1ccc(N2C(=O)Cc3ccccc3C2=O)cc1	-6	i	-10	x	-8	-4	1	12
COCCCNC(=S)N1CCN(C(=O)c2ccco2)CC1	-4	i	-6	-6	8	-1	2	21
COc1ccc(-n2cnnc2SCC(=O)Nc2cc(C(C)(C)C)nn2-c2ccccc2)cc1	-8	i	x	9	5	5	-1	x
O=[N+]([O-])c1cc(Br)c(O)c(/C=N/Nc2nnnn2-c2cccc3ccccc23)c1	49	i	-11	51	17	0	-1	-55
O=C(NCc1ccco1)c1cccc2c1C(=O)c1ccc(/C=C/c3ccccc3)cc1S2(=O)=O	x	x	14	44	x	-6	-6	0
C/C(Cn1cnc([N+](=O)[O-])n1)=N\NC(=O)c1ccccc1	-11	i	-6	-19	-1	2	-4	-8
O=C(CCN1C(=O)/C(=C/c2ccccc2Cl)SC1=S)NN1CCOCC1	-13	i	9	-12	-3	-3	0	-21
COc1cc(/C=C(\C#N)C(=O)N2CCCCC2)ccc1O	6	i	-30	-5	-8	-1	-4	5
O=C(Nc1ccc(Cl)cc1)NN1CC(=O)N(c2cccc(C(F)(F)F)c2)CC1=O	-1	i	x	-9	-15	6	0	1
